Bead autofluor: counter-screen for toxin protease inhibitors: compound fluorescence; 360,000 compounds, 3.1% hits; fluorescence intensity (test concentration not listed); compound autofluorescence counterscreen, microsphere flow cytometry; stronger effect = higher value;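 active means at least 3 SD above the mean of all compounds, about 16000 in these data; inconclusive means too few beads counted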;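 further: 100 nL of 1 mM stock went into each well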
BJeLR viability: MLPCN primary cell-based screen for lethality selective to Ras in HRASV12 cells; 300,000 compounds, 0.17% hits; BJeLR (HRASV12) viability, CellTiter-Glo ATP luminescence, 48 h; reference of the scale not given here; inhibition, % (concentration not given with the values);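 active means replicate mean above 50%; inconclusive means above 50% but judged a plate artefact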;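 further: 50 nL library stock added to about 25 µL; numbers are from one replicate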
Mtb hypoxia rep: PubChem AID 1159583; M. tuberculosis hypoxia-regulated fluorescent reporter, fluorescence; fluorescence inhibition, % (no concentration beside the values); 300,000 compounds, 0.1% hits;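 active means 35 to 45% if threefold the growth effect, above 45% if 1.5-fold the growth effect; inactive means the rest, general growth blockers included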;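 further: wells of about 50 µL received 100 nL stock; 0% = vehicle wells and 100% = reference inhibitor wells; whole bacteria with a GFP reporter of the hypoxia response; strong numbers were not always called active; many hits fall short of the cut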
PrP 5UTR inh: inhibition of PrP 5' UTR reporter expression; cell-based PrP 5' UTR mRNA reporter, plate reader; inhibition, % (test concentration not listed); 340,000 compounds, 0.35% hits; AID 488862, 2010;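 active means every replicate at 50% or more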;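 further: 0 = median of the neutral control wells; tested in H4 reporter cells; numbers are from one replicate; inactives centre near -14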
Sa ugtP lethal: growth inhibition of ugtP-null S. aureus, primary screen, RN4220 ugtP deletion, OD600 | growth inhibition, % (test concentration not listed) | 16 h; some inactives read as strong as hits | 330,000 compounds, 0.54% hits;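 active means z-score under -3 and OD600 up to 0.15 on both plates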;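 further: plate controls were untreated wells for no effect and antibiotic for full effect; wells of about 80 µL received 100 nL stock; the first replicate is given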
Sa RN4220 lethal: growth inhibition of S. aureus RN4220, primary screen, OD600; 16 h; inhibition, % (test concentration not listed); 330,000 compounds, 0.33% hits; AID 1259311, 2017;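 active means z-score of -3 or lower and OD600 up to 0.18 on both plates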;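 further: plate controls were untreated cells for no effect and reference antibiotic for full effect; stock transfer was 100 nL into about 80 µL; one replicate is shown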
Mtb hypoxia rep growth: also measured in Mtb hypoxia rep; calls as there; growth inhibition, %; measured here: M. tuberculosis growth (absorbance);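 0% = vehicle and 100% = reference antibiotic; read after six days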
* marks the source's active call; other numbers are inactive results; u = inconclusive; x = no result given.

Below each compound: Bead autofluor	BJeLR viability	Mtb hypoxia rep	Mtb hypoxia rep growth	PrP 5UTR inh	Sa ugtP lethal	Sa RN4220 lethal
> CCOc1ccc(S(=O)(=O)N(CC)CC(=O)NCc2ccccn2)cc1C
  3599	-3	-10	-10	-10	5	1.5
> CC(=O)CSc1nsc(SCC(C)=O)c1C#N
  3429	2	x	x	-27	1	7.2
> O=C(c1ccccc1NS(=O)(=O)c1ccc(F)cc1)N1CCOCC1
  5219	2	-10	-4	-24	7	5.8
> CCc1c(C)[nH]n(CCC#N)c1=O
  5899	-1	-21	6	-14	-12	-5.0
> Cc1ccc(C)c(NC(=O)CN(C)C(=O)c2ccc(Cl)nc2)c1
  2953	-7	-10	0	-19	-18	1.4
> Cc1cc(O)cc(=O)n1C
  6046	5	-4	0	-12	5	4.3
> COc1ccc(C)cc1NC(=O)CSc1nnc(CC(=O)Nc2cccc(C(F)(F)F)c2)n1C
  7882	-2	3	-1	-9	-2	0.6
> Cc1[nH]c2ccccc2c1C(=O)COC(=O)c1ccc2c(=O)n3c(nc2c1)CCC3
  3215	9	19	9	-14	-6	7.2
> Cc1cc(C(=O)N(Cc2nnc(-c3ccc(Cl)cc3)o2)C(C)C)c2ccccc2n1
  6803	x	-2	1	-4	0	2.5
> CCCCN(CCCNC(=O)CN1C(=O)COc2ccccc21)c1ccccc1
  3833	-1	10	-2	-38	1	-3.3
> CC(C)Sc1nc(N)nc2c1ncn2C1OC(CO)C(O)C1O (stereo not drawn)
  3952	x	3	4	1	11	6.1
> COc1ccc(NC(=S)N2CCCC2)c(OC)c1
  3113	3	-2	-3	-24	3	4.2
> COc1cc(C(=O)NCc2nnc(SCC(=O)N3CCC(C)CC3)o2)cc(OC)c1OC
  2893	2	1	5	1	6	4.6
> CC(=O)c1ccc(C(=O)N2CCCC(C(=O)c3cc(F)ccc3F)C2)s1 (stereo not drawn)
  3987	-5	16	1	-39	4	8.5
> CC(=O)c1ccc(N2CCN(C(=O)c3n[nH]c4ccccc34)CC2)cc1
  3542	-3	0	3	-8	19	8.9
> O=C(c1cc2nc(-c3cccs3)cc(C(F)(F)Cl)n2n1)N1CCCc2ccccc21
  12572	2	0	5	-18	38	10
> O=C1N/C(=C/c2ccc(Br)cc2)C(O)=C1C=NCc1ccccc1
  2571	26	19	5	-13	-2	1.1
> Cc1ccc(Oc2nc3ccccc3n3c(C)nnc23)cc1
  11645	-11	11	4	-19	1	4.2
> Cc1cn(CC(C)C)c(=O)n(-c2ccccc2)c1=O
  3526	x	-3	-1	-41	0	5.1
> c1ccc(CCN2CN=C(Nc3nc4ccccc4s3)NC2)cc1
  3691	-3	5	28	-34	3	0.4
> Cc1noc(C)c1C(=O)OCC(=O)C12CC3CC(CC(C3)C1)C2
  3779	1	17	7	-13	6	6.6
> O=C(CNC(=O)c1ccc(Br)o1)NNC(=O)c1ccccc1O
  5578	-7	x	x	-15	x	x
> Cc1c(NC(=O)C2CC(c3ccc(F)cc3)=NO2)c(=O)n(-c2ccccc2)n1C (stereo not drawn)
  5672	6	9	9	-25	-2	2.1
> COCCCn1c(SCC(=O)NC2CCCC2)nnc1-c1ccncc1
  6012	4	-7	-3	-26	11	-0.4
> CN(C)CCCN(CCCNC(=O)C=NO)Cc1ccccc1
  x	x	5	6	x	-1	4.2
> O=C1N=C(N2CCCC2C(=O)O)SC1=Cc1ccco1 (stereo not drawn)
  x	x	3	10	x	-6	1.3
> CCOCCCNC(=O)c1ccc(OC)cc1
  4418	-6	12	-1	-33	3	3.1
> O=C(O)c1ccc(CSc2nnc(-c3ccncc3)n2CC2CCCO2)cc1 (stereo not drawn)
  6464	1	2	16	-13	-2	-1.1
> CN1CCN(S(=O)(=O)c2ccc(C(=O)Nc3ccccc3)cc2)CC1
  9702	-5	4	13	-52	5	4.2
> COc1cc(OC)cc(C(=O)NC(=S)NNC(=O)c2cnccn2)c1
  9070	10	x	x	-1	x	x
> COc1ccc(N(CC(=O)Nc2cccc3ccccc23)S(C)(=O)=O)c(OC)c1
  3666	1	5	18	-1	-2	-0.6
> O=C(O)c1cccc2c1NC(C(=O)O)C1CC(Sc3ccccc3[N+](=O)[O-])C(Cl)C21 (stereo not drawn)
  9298	x	20	0	-30	24	35
> O=C(NCC1CCN(Cc2ccc(F)cc2)CC1)Nc1cc(F)ccc1F
  3916	-5	9	-5	-12	2	2.1
> CN(Cc1ccc(-n2cccn2)cc1)Cc1nc(-c2cnccn2)no1
  2997	19	12	7	-30	6	8.8
> COc1ccc(OC)c(S(=O)(=O)NCCOC23CC4CC(CC(C4)C2)C3)c1
  9618	-4	4	-2	-18	-2	8.3
> COc1ccc(N2CCN(CC(O)COC(c3ccc(F)cc3)c3ccc(F)cc3)CC2)cc1 (stereo not drawn)
  3627	12	6	5	-13	7	-4.8
> Cc1ccc(NS(=O)(=O)c2ccc(C(=O)OCC(=O)N3CCCCC3)cc2)cc1
  4235	x	-9	5	-12	-3	-3.7
> Cc1csc(=O)n1CC(=O)OCC(=O)NCc1ccccc1
  4758	-10	-3	3	-15	-6	-5.2
> COc1cc(/C=C/C(=O)OCC(=O)Nc2c(C)n(C)n(-c3ccccc3)c2=O)ccc1O
  5970	2	-5	-1	-11	-2	3.1
> O=C(COC(=O)C1CCCN1C(=O)c1cccs1)Nc1ccc2c(c1)OCO2 (stereo not drawn)
  3384	-5	5	1	-15	-4	-17
> O=C(CSC1=NCCS1)Nc1ccccc1F
  2987	-4	2	-2	-60	-5	1.0
> CCOC(=O)N1CCN(C/C(C)=C/c2ccccc2)CC1
  20298*	x	6	4	-11	18	4.5
> CN(C)S(=O)(=O)c1ccc(N2CCCC2)c(C(=O)Nc2ccc(Br)cc2F)c1
  u	7	-6	-4	19	-2	-3.1
> CC(C(=O)NCCN1C(=O)SC(=Cc2cccnc2)C1=O)N1C(=O)c2ccccc2C1=O (stereo not drawn)
  x	x	-2	-2	x	1	9.9
> COc1ccc(-c2nc(-n3c(C)c(C(C)=O)c(C(C)=O)c3C)sc2C)cc1OC
  5892	-4	7	15	-18	6	5.7
> O=C(NN=Cc1cccc2ccccc12)c1ccc(CN2CCOCC2)cc1
  x	x	-4	2	x	12	3.1
> CC(=O)c1ccccc1NC(=O)Cn1c(=O)cnc2ccccc21
  2946	5	13	-1	-11	2	6.7
> O=C(c1ccc(CNS(=O)(=O)c2ccc(Br)cc2)cc1)N1CCCC1
  3452	2	17	18	-17	9	0.6
> O=C(N/N=C\c1ccc(Cl)s1)C1COc2ccccc2O1 (stereo not drawn)
  3712	-1	x	x	-13	x	x
> CC(C)NC(=O)CSc1nnc(-c2ccc3ncccc3c2)n1C
  3269	-1	-3	-18	-7	-3	-1.0
> CC(C)N(Cc1nnc(-c2ccc(Cl)cc2)o1)C(=O)C1=COCCO1
  4972	-10	11	1	-5	-1	2.9
> CCCSc1nc2c(cnn2-c2ccccc2)c(=O)n1N
  x	3	10	1	-65	6	4.1
> COc1ccc(C(=O)Oc2ccc(N(C)S(=O)(=O)c3ccccc3)cc2)cc1[N+](=O)[O-]
  4493	5	7	4	-15	-5	6.9
> O=C(O)CCCC(=O)Nc1ccc(N=Nc2ccccc2)cc1
  2261	-3	11	5	-20	-3	0.0
> COc1ccc(NC(=S)NN=Cc2cccn2Cc2ccc(F)cc2Cl)cc1
  x	x	6	-7	x	2	4.3
> CC1CCC2C(=O)N(c3ccc(C(=O)NCc4ccccc4)cc3)C(=O)C2C1 (stereo not drawn)
  2040	-11	1	4	-10	17	3.1
> COc1cc(CNCc2cccnc2)ccc1OCC(=O)NC1CCCCC1
  4254	-1	-4	2	-37	-4	-2.4
> CCCNC(=O)C(Cc1ccc(I)cc1)NC(=O)c1ccc(C#N)cc1 (stereo not drawn)
  4067	x	12	4	-11	-3	-13
> CCOc1ncccc1C(=O)OCC(=O)NC1CCCCC1
  3456	x	13	18	-12	5	4.3
> Cc1ccc(C)c(OCC(=O)NCC(C)C)c1C
  2747	-6	9	12	-1	15	5.3

(continued)
Below each compound: Bead autofluor	BJeLR viability	Mtb hypoxia rep	Mtb hypoxia rep growth	PrP 5UTR inh	Sa ugtP lethal	Sa RN4220 lethal
> CCC(C)(C)NC(=O)C(c1ccc(F)cc1)N(Cc1ccco1)C(=O)c1cnccn1 (stereo not drawn)
  8786	-16	-6	6	3	-4	-2.3
> O=C(NCCN1CCCCC1)Nc1ccc(F)cc1F
  4099	1	6	4	-45	1	1.4
> CCOc1ccc(N=Cc2c(O)n(-c3cc(C)cc(C)c3)c(=O)[nH]c2=O)cc1
  4627	-2	5	-5	-25	-4	1.1
> COc1cc(C(=O)N2CCC3(CC2)NCCc2[nH]cnc23)cc(OC)c1OC
  5511	0	1	7	1	-5	1.0
> Cc1ccc(C2(CC(=O)N3CCCC3)CCOC(C(C)C)C2)cc1 (stereo not drawn)
  5863	3	12	15	-2	-1	5.8
> C#CC[N+]1(CC#Cc2ccccc2)CCCCC1
  4488	-3	15	1	2	13	7.1
> NC(=O)NN=C(CCCCCCC(=NNC(N)=O)c1ccccc1)c1ccccc1
  x	x	2	17	x	-2	9.3
> Cc1c(C(=O)N/N=C/c2ccccc2)[nH]c2c([N+](=O)[O-])cccc12
  3262	30	x	x	25	x	x
> CSc1n[nH]c2nc3c(c(=O)n12)C1(CCCC1)Cc1ccccc1-3
  2514	6	-3	4	-17	56	16
> CC/C(=N\NC(=S)NC(C)C)c1ccc(OC)c(OC)c1
  4782	-5	x	x	9	x	x
> O=C(NC(=S)Nc1ccc(CN2CCOCC2)cc1)c1ccc([N+](=O)[O-])cc1Cl
  2284	-2	5	7	-11	12	-4.8
> O=C(Cc1ccc(F)cc1)N[C@@H]1c2ccccc2CC[C@@H]1O
  3701	x	4	4	-24	-2	4.4
> O=C(Nc1cc(-c2nc3ncccc3o2)ccc1Cl)c1cccs1
  6298	2	2	-13	-5	-10	7.6
> Cc1nn(C)c(C)c1C(=O)NN
  3243	14	x	x	-13	2	11
> CC(=O)N1CCc2c(sc(NC(=O)c3ccc([N+](=O)[O-])o3)c2C#N)C1
  2066	-5	40*	14*	34	90*	16
> Fc1ccc(C(c2nnnn2C2CCCC2)N2CCN(Cc3ccncc3)CC2)cc1 (stereo not drawn)
  4170	-6	x	x	-8	5	3.0
> Cc1ccc2[nH]c(=O)c3cc(C(=O)NCCC(C)C)sc3c2c1
  3817	3	4	3	-12	7	3.6
> O=C(c1ccc(C(F)(F)F)cc1)c1c[nH]c(C(=O)NCCCn2ccnc2)c1
  19564*	10	2	8	-15	-1	3.1
> O=C(N/N=C/C=C/c1ccccc1)c1ccccn1
  4411	8	x	x	-38	x	x
> Cc1cccc(C(C)C)c1NC(=O)COC(=O)c1cccc(S(=O)(=O)N2CCc3ccccc3C2)c1
  7702	-1	6	4	-23	-5	14
> O=C(c1cc2cc(Br)ccc2s1)N1CCOCC1
  3133	-4	5	3	-11	14	3.2
> S=c1[nH]nc(CSCc2ccc(Cl)cc2Cl)n1-c1ccccc1
  22257*	8	-1	-4	9	50	12
> CCn1nc(C)c(NC(=O)Nc2cccc(Cl)c2Cl)c1C
  3197	2	16	9	-8	-2	0.3
> Cc1ccc(NC(=O)COC(=O)c2cc(Cl)ccc2[N+](=O)[O-])c(C)c1
  2814	2	8	5	-19	1	4.1
> CCN(CC)S(=O)(=O)c1cc(C(=O)OCC(=O)Nc2cccc(Br)c2)ccc1F
  2135	1	1	2	-21	-16	-1.5
> O=C(CC1NCCNC1=O)Nc1ccc(Cl)c(Cl)c1 (stereo not drawn)
  2212	-5	-2	6	-13	3	4.9
> CCC(C)(NC(=O)c1ccc2c(c1)OCO2)C(=O)NC1CCCCC1 (stereo not drawn)
  4775	-8	-15	-6	-2	-1	2.4
> O=C(NCCCCCCNC(=O)C1CCCC1)C1CCCC1
  21472*	-2	6	17	-16	-2	3.4
> CCOc1ccc(-c2nnc3ccc(SCC(=O)NCc4ccco4)nn23)cc1
  11716	-5	5	4	-6	4	0.3
> O=C(O)c1ccc(OCCOc2ccccc2)cc1
  3975	-4	x	x	-26	x	x

Assay outcomes (PubChem BioAssay)
